Bioassay records (PubChem)
AID504770 – E. coli YBA685 growth inhibition, screen for V. cholerae RctB inhibitors. z-score (concentration not given with the values). hit rate 0.27% among 130,000. AID 504770. E. coli YBA685 rctB-dependent plasmid, OD600 growth, 3 h; stronger effect = lower value;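 active = z-score under -2 on both plates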;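 note: wells of about 30 µL received 100 nL stock; score is relative to mean and SD of the test wells; the first replicate is given; strong numbers were not always called active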
CapD inh – blocks the Bacillus anthracis CapD enzyme. purified CapD enzyme, fluorescence intensity read-out; stronger effect = lower value; some hits fall short of the stated cut. hit rate 0.23% among 140,000. AID 492967. z-score (no concentration beside the values);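 active = z-score under -4 in either of two replicates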;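 note: stock transfer was 100 nL into about 40 µL; score is relative to mean and spread of the plate; one replicate is shown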
* hit, by the source's call.

Screening N#Cc1cc(C(=O)c2cccs2)c2nc3ccccc3n2c1N returned AID504770 -0.7.
`Cc1ccc(-n2cc(-c3ccccc3)c3c(NN4CCOCC4)ncnc32)cc1Cl` gave AID504770 -0.6 and CapD inh -0.775.
O=C(Oc1ccc(Cl)cc1)c1ccc2nc(-c3ccccc3)c(-c3ccccc3)nc2c1 was read as CapD inh -0.075.
For Nc1nc(C(=O)N2CCOCC2)nn1S(=O)(=O)c1ccc(Cl)cc1 the results were AID504770 0.85 and CapD inh -0.785.
Screening c1ccc2sc(C3CCCNC3)nc2c1 (centres undefined) returned AID504770 0.
`CC1CCCC(C)N1C(=O)COC(=O)c1cccs1` (centres undefined) gave AID504770 -1.05 and CapD inh -0.455.
For CC1(C)CC(NCc2ccccc2)c2cccn21 (centres undefined) the results were CapD inh 2.05.
`COc1ccccc1NNC(=O)C1CCCCC1` gave AID504770 -1.3 and CapD inh 0.495.
For Cc1cccc2nc(Cn3c(=O)n(CCC(=O)NCc4ccco4)c(=O)c4ccccc43)cc(=O)n12 the results were AID504770 -1.5 and CapD inh 12.3.
Screening CCCCN1C(=O)/C(=C2\SC(N3CCOCC3)=NC2=O)c2ccccc21 returned AID504770 -0.3 and CapD inh -0.18.
Screening O=C(O)c1cc(OCC(F)(F)F)nc(OCC(F)(F)F)c1 returned CapD inh 0.64.
`COc1ccc(/C=N/NC(=O)CSc2nc3ccccc3o2)cc1OC` gave AID504770 0.1 and CapD inh 0.545.
CCOC(=O)c1c(-c2ccccc2)oc2ccc(NS(=O)(=O)c3ccc4c5c(cccc35)C(=O)N4)cc12 was read as CapD inh -0.035.
CC(C)(C)C(=O)n1cc2c(n1)-c1cc(Cl)ccc1SC2 was read as AID504770 -0.5 and CapD inh 13.3.
C=CCn1c(CCSCc2ccc(OC)cc2)n[nH]c1=S was read as AID504770 -0.5.
Screening CCN(CC)CCCOc1cccc2ccccc12 returned AID504770 -0.85 and CapD inh 0.405.
For O=C(NCc1ccccn1)c1cc(Sc2ccc(F)cc2)nc2ccccc12 the results were CapD inh 18.7.
For O=C1CSC(c2cn(-c3ccccc3)nc2-c2cccnc2)N1Cc1ccccc1 (centres undefined) the results were CapD inh 0.56.
`OC(CN1CCN(c2nc3ccc(Cl)cc3s2)CC1)Cn1ccc2ccccc21` (centres undefined) gave AID504770 -0.1 and CapD inh 0.495.
Screening COCc1oc2c(cc(NS(=O)(=O)c3ccc(F)cc3)c3ccccc32)c1C(=O)OC returned CapD inh -0.195.
Screening O/N=C/c1c(Cl)nc2sccn12 returned AID504770 0.9 and CapD inh -0.735.
For CC1CCN(CCNS(=O)(=O)c2ccc3c(c2)CCCC(=O)N3)CC1 the results were AID504770 -0.55 and CapD inh 0.385.
N/C(CC(=O)Nc1ccc(F)c(Cl)c1)=N\O was read as CapD inh 0.505.
`O=C(NCCCN1CCCCC1)c1ccc(-n2ccc3ccccc32)s1` gave AID504770 -0.65 and CapD inh 40.9.

Gathered by group: the compounds so far with an aryl thioether with sulfur outside any ring (2)
`COc1ccc(/C=N/NC(=O)CSc2nc3ccccc3o2)cc1OC` gave AID504770 0.1 and CapD inh 0.545.
For O=C(NCc1ccccn1)c1cc(Sc2ccc(F)cc2)nc2ccccc12 the results were CapD inh 18.7.

Following part.
O=C(CCSc1nnnn1-c1ccccc1)N1CCOCC1 was read as AID504770 -0.35 and CapD inh -0.21.
`CCOC(=O)Cc1csc(SCC(=O)N2c3ccccc3NC(=O)C2(C)C)n1` gave AID504770 0.2.
`NC12CC3CC(C1)CC(CC(=O)O)(C3)C2` gave AID504770 -0.75 and CapD inh -0.82.
Screening O=C(CC1Oc2ccccc2NC1=O)NCCCN1CCN(C2CCCCC2)CC1 (centres undefined) returned AID504770 -1.2 and CapD inh 0.16.
COC(=O)c1ccc(CS(=O)(=O)c2ccc(Br)cc2)o1 was read as AID504770 -0.95 and CapD inh 0.42.
O=C1/C(=C/c2cccs2)SC(=S)N1CCCN1CCOCC1 was read as AID504770 0.75.
`N#Cc1ccc(OCc2cnc(Cl)s2)cc1` gave AID504770 0.8 and CapD inh 0.075.
`N[C@@H](C(=O)O)c1ccccc1` gave CapD inh -0.375.
CC(=O)N1CCc2cc(S(=O)(=O)CCC(=O)Nc3cccc(F)c3)ccc21 was read as AID504770 -0.6 and CapD inh -0.415.
`CCCCn1c(=S)[nH]c2c1c(=O)[nH]c(=O)n2C` gave AID504770 0.4 and CapD inh 0.16.
For NC(=S)N/N=C/c1cn(-c2ccccc2)nc1-c1cccnc1 the results were AID504770 0.65.
COc1cccc2cc(-c3cn(-c4ccc(F)c(F)c4)c(=S)[nH]3)c(=O)oc12 was read as AID504770 -0.4 and CapD inh -0.35.
CN(Cc1ccccc1)C(=O)CN(c1cc(C(F)(F)F)ccc1Cl)S(=O)(=O)c1ccccc1 was read as CapD inh -0.325.
Cc1ccc(N2C(=O)CSC23C(=O)N(CN2CCC(C)CC2)c2ccccc23)cc1Br (centres undefined) was read as CapD inh 0.305.
`COc1ccccc1C(=O)Nc1ccc(N2CCCCC2)cc1` gave AID504770 -0.55 and CapD inh -0.705.
Screening O=C(N/N=C/C=C/c1ccccc1)NC1CCCCC1 returned AID504770 -0.05.
For CCOC(=O)CSc1nc(-c2ccccc2)nc2c1oc1ccccc12 the results were AID504770 1 and CapD inh 0.745.
Cc1ccc(C(=O)Nc2ccc3ccccc3n2)cc1 was read as AID504770 -0.25 and CapD inh 1.48.
For Cc1nc2nc(SCC(=O)NC3CC3)nn2c(C)c1Cc1ccccc1 the results were AID504770 0 and CapD inh 0.61.
For O=C(ON=C1CCN(S(=O)(=O)c2ccccc2)CC1)c1ccccc1 the results were CapD inh -0.8.
For CCOC(=O)C1=C(C)N=c2s/c(=C\c3ccc(O)c(OC)c3)c(=O)n2C1c1ccc(OC(C)C)cc1 (centres undefined) the results were CapD inh -0.265.
For CC(CC(=O)O)CC1=NS(=O)(=O)c2ccccc2N1 (centres undefined) the results were AID504770 -0.45 and CapD inh 0.25.
For O=[N+]([O-])c1ccc2c(c1)S(=O)(=O)CC2SCCO (centres undefined) the results were CapD inh -0.42.
Screening O=C(NC1CCN(C(=O)c2ccc(Cl)cc2)CC1)c1ccccc1 returned CapD inh 0.79.
O=C(O)C1CCN(c2ncnc3sccc23)CC1 was read as AID504770 0.55.
Cc1noc2ccccc12 was read as AID504770 -0.3.
For CCCc1ccc(C(=O)Nc2cccnc2Oc2ccc(Cl)cc2)cc1 the results were CapD inh 0.505.
`Cc1cc(C)nc(NS(=O)(=O)c2ccc(NC(=O)c3sc4ccccc4c3Cl)cc2)n1` gave CapD inh 10.2.
Screening Cc1cc(C)n(-c2nc3cc(Cl)ccc3nc2NCc2ccc3c(c2)OCO3)n1 returned AID504770 1.3 and CapD inh -0.04.
`O=C(Cn1c(=O)n(CCc2ccccc2)c(=O)c2ccccc21)Nc1ccc(Cl)cc1` gave AID504770 0.65 and CapD inh 0.535.
`O=C(O)Cc1ccc(Nc2nc3ccccc3n3nnnc23)cc1` gave AID504770 -0.85 and CapD inh -3.31.
CC[C@H]1CN2CCc3cc(OC)c(OC)cc3C2C[C@@H]1CC1NCCc2cc(OC)c(OC)cc21 (some centres undefined) was read as AID504770 -0.05 and CapD inh 0.095.
C/C(=N\NC(=O)C1CC1(C)c1ccccc1)c1ccco1 (centres undefined) was read as AID504770 1.55.
`Cc1ccc(Nc2nc(CSc3nnnn3Cc3cccs3)cs2)cc1` gave AID504770 2.5.
`CCn1nnc(-c2ccccc2N)n1` gave AID504770 -1.3 and CapD inh 0.18.
Screening CCN1CCSc2ccc(C(=O)NCCC(C)C)cc21 returned AID504770 -1.1 and CapD inh 102.
Screening C=CCSc1nnc(NC(=O)CN(C)S(=O)(=O)c2ccc(Cl)cc2)s1 returned AID504770 -0.8.
`O=C1CCCN2N=C(SCC(=O)N3CCCCC3)SC2=N1` gave AID504770 0.1 and CapD inh 0.485.
Screening CCOC(=O)Cc1csc(C)n1 returned AID504770 0.4 and CapD inh 0.99.
`CCCCn1cnc2oc(-c3ccccc3)c(-c3ccccc3)c2c1=N` gave CapD inh 3.86.
For CCN(C(=O)Cn1ncc(Cl)c(Cl)c1=O)c1ccccc1 the results were AID504770 0.
For CCOc1ccc(C2C3CN(CC)CC=C3C(C#N)=C(N)C2(C#N)C#N)cc1 (centres undefined) the results were CapD inh 0.89.
For CC(C)C(NC(=O)c1ccco1)C(=O)Nc1sc2c(c1C(N)=O)CCC2 (centres undefined) the results were AID504770 -0.25.
`CCc1ccc(N2C(=O)CC(Sc3nnc(N)s3)C2=O)cc1` (centres undefined) gave AID504770 0.85 and CapD inh -0.745.
CCOC(=O)c1[nH]c(=O)[nH]c1Cn1nc(C)cc1C was read as AID504770 -0.75 and CapD inh 0.455.
Screening CC1(C)CC(=O)C=C(N2CCNCC2)C1 returned AID504770 -0.35.
CCOC(=O)c1cnc(C(C)(C)C)[nH]c1=O was read as AID504770 -0.95 and CapD inh 0.15.
For S=C(N=S(c1ccccc1)c1ccccc1)Nc1ccccc1 the results were AID504770 1.35 and CapD inh 0.23.
Screening CN1CCC(N(C2CC2)S(=O)(=O)c2ccc(NC(=O)Nc3cccc(C(F)(F)F)c3)cc2)CC1 returned CapD inh -0.21.
For Cc1nn(Cc2ccccc2)c(C)c1C(=O)NCCN1C(=O)S/C(=C\c2cccs2)C1=O the results were AID504770 1.1.
For CCN1C(=O)CC(NC2CCN(C(=O)c3ccc(F)cc3)CC2)C1=O (centres undefined) the results were AID504770 -0.9 and CapD inh -0.215.
CCOC(=O)/C(C#N)=N\Nc1ccccc1OC was read as AID504770 0.75.
Screening CC(=O)CC1(O)C(=O)Nc2ccc(F)cc21 (centres undefined) returned CapD inh 0.44.
N#Cc1c2n(c3c(=O)[nH]cnc13)CCCC2 was read as AID504770 0.05 and CapD inh 0.54.
Screening CN(C)c1ccc(/C=C2\C(=O)NC(=O)N(C3CCCC3)C2=O)o1 returned AID504770 2.2.
`Cc1ccc(CSc2nc3c(c(N4CCN(C)CC4)n2)CCCC3)cc1` gave CapD inh -0.11.
For O=CN(CN1C(=O)c2ccccc2S1(=O)=O)CN1C(=O)c2ccccc2S1(=O)=O the results were CapD inh -0.19.
Screening COC(=O)/C=C1\SC(=O)NC1=O returned AID504770 -0.05.
COC(=O)c1ccccc1NC(=O)Cn1ncc2c(=O)oc3ccccc3c21 was read as AID504770 -3.9 and CapD inh -0.135.
`c1ccc(CSc2nncn2-c2ccccc2)cc1` gave AID504770 -1.1 and CapD inh -0.07.

Reprinted at random: 7 compounds from above
For O=C(NCc1ccccn1)c1cc(Sc2ccc(F)cc2)nc2ccccc12 the results were CapD inh 18.7.
O=C(O)C1CCN(c2ncnc3sccc23)CC1 was read as AID504770 0.55.
COC(=O)c1ccc(CS(=O)(=O)c2ccc(Br)cc2)o1 was read as AID504770 -0.95 and CapD inh 0.42.
Screening COC(=O)/C=C1\SC(=O)NC1=O returned AID504770 -0.05.
Screening O/N=C/c1c(Cl)nc2sccn12 returned AID504770 0.9 and CapD inh -0.735.
CCOC(=O)/C(C#N)=N\Nc1ccccc1OC was read as AID504770 0.75.
Screening Cc1cc(C)n(-c2nc3cc(Cl)ccc3nc2NCc2ccc3c(c2)OCO3)n1 returned AID504770 1.3 and CapD inh -0.04.

(further entries)
For O=C(NCCCN1CCOCC1)C1CCN(C(=O)c2cnn(-c3ccccc3)c2-n2cccc2)CC1 the results were AID504770 0.85 and CapD inh -0.12.
Screening CC(C)c1ccc(NC(=O)COn2nnc3ccccc32)cc1 returned AID504770 -1.05 and CapD inh -1.18.
COc1ccccc1CNC(=O)c1ccc(-n2cc(-c3ccc(Cl)cc3)cn2)cc1 was read as CapD inh -0.14.
`CCOc1cc(C#N)c(NC(=O)c2ccnn2C)cc1OCC` gave AID504770 1.5 and CapD inh 0.58.
For CCCCc1ccc(C(=O)Nc2ccc(NC(=O)c3ccc(CCCC)cc3)c3c2C(=O)c2ccccc2C3=O)cc1 the results were CapD inh -0.075.
For O=C1NC(=Nc2ccc(F)cc2)CS1 the results were AID504770 0.85.
For COc1cc(CN2CCC(N3C(=O)C4C5C=CC(C5)C4C3=O)C2)cc2c1OCO2 (centres undefined) the results were CapD inh -0.495.
`CC(NS(=O)(=O)c1ccc(F)cc1)C(c1cccs1)N1CCN(c2ccccc2)CC1` (centres undefined) gave AID504770 0.
COC(=O)C1=C(N)OC2=C(C(=O)CCC2)C1c1cccnc1 (centres undefined) was read as AID504770 -0.7 and CapD inh 0.86.
For COc1ccc(-c2cc(C(N)=O)on2)c(OC)c1 the results were AID504770 -0.85.
Screening O=C(NC(Cc1ccccc1)C(=O)N1CCN(c2ncccn2)CC1)c1ccco1 (centres undefined) returned AID504770 -0.35.
`C(=N\OCc1nc2c3cnn(-c4ccccc4)c3ncn2n1)/c1ccccc1` gave AID504770 1.85.
`COC(=O)c1ccc(-c2ccco2)n1Cc1cccc(C)c1` gave AID504770 0.4 and CapD inh 15.8.
`C=C(C)Cn1c(C2CC(=O)N(c3cc(OC)ccc3OC)C2)nc2ccccc21` (centres undefined) gave AID504770 -0.85 and CapD inh 0.165.
